HNF4A DNA FP: change in binding of human HNF4 alpha to DNA; AID 1224865; HNF4a-FITC DNA binding, fluorescence polarization, 1 h; 360,000 tested, 0.3% active; P41235; activity change, % at 10 µM; in the data active = activity change above about 30%, passing the limit was not always enough;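 also: controls were the assay level and a saturating level of protein; the project sought stronger binding though the title names inhibitors; some compounds called inactive have numbers as strong as hits; positive values seem to mean higher polarization but the record does not say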
Target sequence (P41235 whole entry, looked up): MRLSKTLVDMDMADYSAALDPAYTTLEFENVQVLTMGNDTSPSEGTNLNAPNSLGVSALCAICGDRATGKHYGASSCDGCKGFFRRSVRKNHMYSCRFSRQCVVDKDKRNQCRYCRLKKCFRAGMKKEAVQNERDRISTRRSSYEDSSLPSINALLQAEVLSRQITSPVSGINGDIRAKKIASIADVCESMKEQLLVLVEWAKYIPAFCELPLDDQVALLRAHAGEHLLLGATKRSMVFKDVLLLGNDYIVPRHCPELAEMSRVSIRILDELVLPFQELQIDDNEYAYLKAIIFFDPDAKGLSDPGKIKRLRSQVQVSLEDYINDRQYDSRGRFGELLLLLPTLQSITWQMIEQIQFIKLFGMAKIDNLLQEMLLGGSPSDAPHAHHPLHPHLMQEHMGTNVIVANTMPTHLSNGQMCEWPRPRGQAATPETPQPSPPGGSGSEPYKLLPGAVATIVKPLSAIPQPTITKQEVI
E coli growth: blocks Escherichia coli growth. OD600 absorbance (test concentration not listed). OD600, 23 h; hits give low values. 330,000 tested, 0.21% active;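 active = OD600 absorbance below the run mean of sample wells minus 3.6 SD, in any replicate, cut at about 0.56 in these data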;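 also: stock transfer was 300 nL into about 60 µL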
ALR H2O2 inh: blocks human ALR sulfhydryl oxidase activity; P55789; purified ALR, DTT oxidation, H2O2 HRP-luminol luminescence; inhibition, % (concentration not given with the values); 290,000 tested, 3.8% active;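 active = mean and each replicate at 75% or more; inconclusive = only one of the two met; inactive = neither met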;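 also: stock transfer was 7.5 nL into about 7.5 µL; 0% = neutral wells and 100% = wells with inactivated enzyme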
Vif TR-FRET: HIV-1 Vif–A3G interaction blockers – biochemical, TR-FRET, GST-Vif 1-94, biotin-A3G peptide, dose response retest, primary screen (AID 1117319); TR-FRET GST-Vif / biotin-A3G peptide binding; higher % means a stronger effect; test concentration not given here; strong numbers were not always called active; one-dose inhibition, %; IC50 in µM for titrated hits; 260,000 tested, 0.57% active;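 active = above the screen mean plus three standard deviations and confirmed in dose response; inconclusive = results disagree or hit not tested in dose response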;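 also: Vif residues 1-94 fused to GST binding biotinylated APOBEC3G peptide 110-148; 0% = full assay without inhibitor and 100% = GST in place of GST-Vif; retest series ran down from 100 µM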
FGF22 binding: binders of recombinant human FGF22 by thermal shift; Q9HCT0; SYPRO orange fluorescence; percent of sucrose octasulfate shift, DMSO zero; calls only at 9.99 µM; 340,000 tested, 1.5% active; AID 651658;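 active = melting point raised past a set limit in the mean and every replicate; inconclusive = no clear call; three in four hits are not shown here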
Ecoli rRNA inh: inhibits bacterial ribosomal RNA function over humanized ribosomes; E. coli WT GFP vs humanized-ribosome RFP mutants, fluorescence, 24 h; hits give low values; DMSO median 0, no signal -100; GFP signal change (wild-type ribosome), % (no concentration beside the values); 350,000 tested, 1.6% active;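 active = significant combined selectivity score with lowered wild-type GFP, culture density cut under 30%, mutant RFP and density less affected; inactive = any of these conditions unmet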; also: one replicate is shown; some compounds called inactive have numbers as strong as hits
AF4-AF9 inh: blocks AF4 peptide binding to human AF9; P42568; AlphaScreen, biotin-AF4 peptide binding to FLAG-AF9; inhibition, % at 10 µM; 350,000 tested, 0.47% active; AID 651704;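 active = every replicate reaching a set inhibition limit, whatever the replicate mean, cut at about 25% in these data; inconclusive = mean inhibition reaches that limit but some replicates miss it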;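 also: 0% = plate neutral control median and 100% = total signal loss; the record names both 10 and 1 µM as test concentration; the first replicate is given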
Target sequence (P42568 whole entry, looked up): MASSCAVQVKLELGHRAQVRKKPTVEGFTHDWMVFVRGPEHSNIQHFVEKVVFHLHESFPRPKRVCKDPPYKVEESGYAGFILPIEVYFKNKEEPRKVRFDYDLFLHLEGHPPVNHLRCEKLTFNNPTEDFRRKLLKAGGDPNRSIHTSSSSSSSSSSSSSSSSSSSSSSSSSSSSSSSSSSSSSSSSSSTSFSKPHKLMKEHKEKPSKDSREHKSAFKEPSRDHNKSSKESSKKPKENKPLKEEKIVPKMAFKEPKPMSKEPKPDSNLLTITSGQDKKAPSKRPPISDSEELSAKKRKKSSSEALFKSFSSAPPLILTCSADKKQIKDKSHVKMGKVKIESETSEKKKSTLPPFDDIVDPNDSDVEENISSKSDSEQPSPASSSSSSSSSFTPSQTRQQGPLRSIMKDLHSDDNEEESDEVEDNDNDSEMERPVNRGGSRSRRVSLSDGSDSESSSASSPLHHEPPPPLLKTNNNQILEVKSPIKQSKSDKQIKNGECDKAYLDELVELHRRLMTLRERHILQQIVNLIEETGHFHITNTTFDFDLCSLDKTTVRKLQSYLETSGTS
Ecoli rRNA inh OD600: recorded beside Ecoli rRNA inh, whose call it bears; OD600 change, %; measured here: OD600 growth;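 optical density of the mix in the first replicate; 0 = DMSO median and -100 = no signal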
Ecoli rRNA inh RFP: second read-out of Ecoli rRNA inh, no call of its own (marks repeat the call); RFP signal change, %; measured here: RFP humanized mutant strains;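 first replicate; 0 = DMSO median and -100 = no signal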
* marks the source's active call; other numbers are inactive results; i = inactive; ? = inconclusive; nt = not tested or not shown; & = joins results of further samples. A portion of the library; rates above refer to the full screens.

Values in the order: HNF4A DNA FP	E coli growth	ALR H2O2 inh	Vif TR-FRET	FGF22 binding	Ecoli rRNA inh	Ecoli rRNA inh OD600	Ecoli rRNA inh RFP	AF4-AF9 inh
COc1ccc(NC(=O)Nc2ccc3c(c2)CC(=O)N([C@@H](C)CO)C[C@H](C)[C@@H](CN(C)S(=O)(=O)c2ccc(F)cc2)O3)cc1
  nt	nt	nt	nt	i	-3	-3	-2.0	1.6
Cc1ccc(S(=O)(=O)NC(C)(C)CSc2ncccn2)cc1
  -1.1	0.69	-4	3%	i	0	-6	-0.6	-1.5
Cc1[nH]n2c(=O)cc(-c3ccc([N+](=O)[O-])cc3)nc2c1-c1ccccc1
  0.0	0.69	89*	nt	nt	nt	nt	nt	nt
CC(=O)N(Cc1cccs1)Cc1cc2ccc(C)c(C)c2nc1Cl
  6.8	0.65	6	-16%	i	13	15	-0.1	-3.8
CCn1c(CNC(=O)c2ccccc2Br)nnc1SCC(=O)NC1=NCCS1
  -0.8	0.69	nt	0%	i	9	11	-1.9	-0.9
CC1=C(C(=O)N2CCCCCC2)CC(CC(=O)NC2CCCC2)C(=O)N1CCC1=CCCCC1 (stereo not drawn)
  1.1	nt	nt	nt	i	nt	nt	nt	-3.0
CCn1c(SCC(=O)NCc2ccc3c(c2)OCO3)nc2c(c1=O)SCC2
  1.9	0.7	-4	nt	i	3	7	-2.3	-1.5
CNC[C@@H]1Oc2c(NC(=O)Nc3ccc(F)cc3)cccc2C(=O)N([C@H](C)CO)C[C@H]1C
  nt	nt	nt	nt	i	0	-8	-1.1	-1.0
Cc1csc(SCC(=O)O)n1
  5.5	0.74	-10	-2%	nt	nt	nt	nt	nt
Cc1ccccc1NS(=O)(=O)c1ccc(C(=O)NCC2(N3CCOCC3)CCCCC2)cc1
  0.2	0.67	nt	nt	i	8	12	2.6	?
O=C(O)c1ccc2c(=O)n(Cc3ccccc3)c(SCc3ccc([N+](=O)[O-])cc3)nc2c1
  1.1	0.68	?	-3%	i	-18	-2	8.6	2.7
CCOc1ccc(NC(=S)NC(=O)/C=C/c2ccc(C)cc2)c([N+](=O)[O-])c1
  -0.4	0.64	-3	3%	nt	nt	nt	nt	nt
COc1ccc(NC(=O)N(C)C[C@@H]2OCCCC[C@H](C)Oc3ccc(NS(=O)(=O)c4cn(C)cn4)cc3C(=O)N([C@H](C)CO)C[C@@H]2C)cc1
  nt	nt	nt	nt	i	4	0	1.0	-1.3
O=C(Cc1ccncc1)Nc1ccc2c(c1)[C@H]1C[C@@H](CC(=O)N3CCc4ccccc4C3)O[C@@H](CO)[C@H]1O2
  nt	nt	nt	nt	i	-4	17	-4.1	5.6
CCN(CC)C(=O)CN(c1ccc2c(c1)OCO2)S(C)(=O)=O
  0.0	0.7	-3	27%	nt	nt	nt	nt	nt
CC1(c2ccccc2)CC(C)(C)N(C(=O)C2CCCO2)c2ccccc21 (stereo not drawn)
  -2.6	0.64	0	14%	i	-44	-52	-6.3	-32
CCOc1ccc(CCNC(=O)COC(=O)/C=C/c2ccccc2)cc1OCC
  -1.8	0.65	2	7%	i	-6	-1	-1.2	-8.8
O=C(Cn1cnc2ccccc2c1=O)c1ccc(Br)cc1
  -2.3	0.69	-4	-34%	i	-8	-2	-3.3	-0.8
CN1/C(=C\C(=O)COC(=O)c2nccnc2N)C(C)(C)c2ccccc21
  17	0.69	-13	2%	i	-11	-16	24	3.2
O=C(Nc1c(-c2ccccc2)[nH][nH]c1=O)c1cccs1
  -0.1	nt	nt	nt	i	7	7	-0.7	-0.2
Cc1nn(-c2ccccc2)c2nc3c(cc12)C(=O)CCC3
  0.5	0.7	-4	nt	i	5	1	5.3	-1.3
COc1ccccc1CNC(=O)C[C@@H]1C=C[C@H](NC(=O)CN(C)C)[C@@H](CO)O1
  nt	nt	nt	nt	i	-2	-6	0.6	2.8
NS(=O)(=O)c1ccc(NC(=O)C2Cc3ccccc3CN2C(=O)c2ccco2)cc1 (stereo not drawn)
  -17	0.67	-30	4%	i	2	6	-0.7	-4.2
CN(Cc1ccccc1)c1nc2c(c(=O)[nH]c(=O)n2C)n1CCCc1ccccc1
  1.5	0.63	-5	2%	nt	nt	nt	nt	nt
CCOC(=O)C1=CN(Cc2cccc(-c3ccc4c(c3)OCO4)c2)S(=O)(=O)N(C)C1C (stereo not drawn)
  2.5	0.74	nt	-5%	i	9	8	6.8	-0.7
O=Nc1c(O)n(Cc2c(Cl)cccc2Cl)c2ccccc12
  -3.2	0.68	-19	11%	i	nt	nt	nt	-1.4
Cc1c(NC(=O)COC(=O)Cc2ccc(F)cc2)c(=O)n(-c2ccccc2)n1C
  1.9	0.7	2	5%	nt	12	8	0.0	-0.3
COC(=O)CN(c1c(C)cccc1C)S(C)(=O)=O
  0.0	0.67	-1	11%	nt	nt	nt	nt	nt
COc1ccccc1OCCn1c(=O)n(C)c2ccccc21
  2.9	0.71	-6	-3%	i	6	-3	0.0	-2.9
COc1ccc(C(=O)COC(=O)CCC(=O)Nc2ccc(C(C)=O)cc2)cc1
  -1.8	0.73	-2	nt	i	2	-3	2.8	2.1

Additional results follow.
Values in the order: HNF4A DNA FP	E coli growth	ALR H2O2 inh	Vif TR-FRET	FGF22 binding	Ecoli rRNA inh	Ecoli rRNA inh OD600	Ecoli rRNA inh RFP	AF4-AF9 inh
CC(C)(C#N)NC(=O)C1CCCN1S(=O)(=O)c1ccc2ccccc2c1 (stereo not drawn)
  -1.3	nt	0	-5%	i	3	1	-0.4	-13
C[C@@H]1CN([C@@H](C)CO)C(=O)c2cc(NC(=O)c3ccncc3)ccc2O[C@@H](C)CCCCO[C@H]1CN(C)Cc1ccccc1
  nt	nt	nt	nt	i	3	10	-2.8	-3.2
C[C@@H]1CN([C@@H](C)CO)C(=O)Cc2cc(NS(=O)(=O)c3ccc(Cl)cc3)ccc2O[C@@H]1CN(C)Cc1ccncc1
  nt	nt	nt	nt	i	-3	-10	-1.0	-0.4
C[C@@H]1CCCCO[C@H](CN(C)C(=O)Cc2ccccc2)[C@H](C)CN([C@@H](C)CO)C(=O)c2cc(NC(=O)Nc3ccccc3)ccc2O1
  nt	nt	nt	nt	i	0	-11	-2.6	1.9
c1ccc2c(c1)Cc1cc(CN3CCOCC3)ccc1-2
  -4.2	0.68	-6	5%	nt	nt	nt	nt	nt
CCOC(=O)c1[nH]c(=O)[nH]c1CNc1ccccc1C#N
  1.7	0.65	57	nt	i	23	21	3.5	6.2
O=C(CCS(=O)(=O)c1ccc(F)cc1)N1CCN(c2ccccc2)CC1
  1.0	0.71	nt	3%	i	1	3	-1.6	2.8
CN(C)S(=O)(=O)c1cccc(-c2nnc3n2CCCCC3)c1
  -0.3	0.68	1	nt	i	7	11	4.4	-7.5
CCC(CO)Oc1cc(NCc2ccc(Cl)cc2Cl)c2ncn(C(C)C)c2c1 (stereo not drawn)
  -2.2	0.71	-3	nt	i	-21	-16	11	5.5
O=[N+]([O-])c1c(NCCO)cc(N2CCN(Cc3ccc4c(c3)OCO4)CC2)c2nonc12
  -2.6	0.71	nt	nt	i	10	14	0.1	1.8
O=C(NCCn1cc(SCc2ccccc2)c2ccccc21)c1ccccc1F
  1.3	0.72	59	-2%	i	-5	-17	-1.3	-2.6
COc1ccc(NC(=O)NNC(=O)c2ccc3ccccc3c2)cc1OC
  3.9	0.68	2	3%	i	1	2	0.6	-1.2
COc1ccc2nc(NC(=O)CN(C)S(=O)(=O)c3cccs3)sc2c1
  -2.4	0.64	-6	0%	nt	nt	nt	nt	nt
Nc1cc(-c2ccccc2)nn1S(=O)(=O)c1ccc(F)cc1
  0.8	0.7	5	5%	i	-4	-4	2.1	-8.2
CCOc1cc(C2CC(=O)Nc3cc(C)c(C)cc32)ccc1O (stereo not drawn)
  -6.0	0.66	-1	-1%	nt	nt	nt	nt	nt
O=C(CN1CCN(C(=O)c2ccccc2)CC1)Nc1ncc(Br)cc1Br
  0.4	0.76	0	7%	nt	nt	nt	nt	nt
C[C@@H]1CN([C@H](C)CO)C(=O)c2cccc(NS(=O)(=O)c3cn(C)cn3)c2O[C@@H]1CN(C)C(=O)Nc1cccc2ccccc12
  nt	nt	nt	nt	i	2	-1	2.3	-0.9
O=C(c1ccc(CS(=O)Cc2ccc(Cl)cc2)o1)N1CCN(C2CCCCC2)CC1 (stereo not drawn)
  0.8	nt	nt	7%	i	-4	-14	0.1	-3.2
COC(=O)c1ccc(C)c(NC(=O)Cn2c(C)csc2=O)c1
  1.5	0.71	-2	nt	i	7	10	-1.9	-1.5
CC(=O)N(CCCNC(=O)c1ccccc1)C(=O)c1ccccc1
  0.1	0.71	-3	nt	i	5	-7	-1.0	0.2
C[C@@H]1CN([C@@H](C)CO)C(=O)c2cc(NC(=O)CCCN(C)C)ccc2O[C@@H]1CN(C)Cc1ccc(C(=O)O)cc1
  nt	nt	nt	nt	i	5	14	-0.8	-4.5
Cn1cccc1Cc1nnc(SCC(=O)Nc2ccccc2F)n1CCc1ccccc1
  3.6	0.77	11	0%&-2%	i	3	0	0.1	5.6
COc1ccc(CCNC(=O)c2cc3cc(F)ccc3nc2C)cc1OC
  -2.3	0.72	2	nt	i	10	2	-0.4	-3.0
Cc1cccc(C)c1NC(=O)CN(C)C(C)C(=O)Nc1ccccc1-c1ccccc1 (stereo not drawn)
  -3.3	0.68	-12	nt	i	-25*	-20*	3.6*	1.0
C[C@H](CO)N1C[C@H](C)[C@@H](CN(C)C(=O)c2ccccc2F)Oc2ncc(C#Cc3ccncc3)cc2C1=O
  nt	nt	nt	nt	i	-1	-1	-0.3	-3.4
O=C(CNCC1CCCCC1)Nc1cccc(S(=O)(=O)N2CCOCC2)c1
  1.9	0.63	0	25%	nt	nt	nt	nt	-0.3
COc1cccc(CNC(=O)CCC2CCCN(C(=O)c3cc(C)[nH]n3)C2)c1 (stereo not drawn)
  2.8	0.66	-4	nt	i	16	18	2.3	-1.7
CCN1CCN(C(CNC(=O)c2ccc3c(c2)OCO3)c2cccnc2)CC1 (stereo not drawn)
  -2.0	0.78	-2	2%	i	8	13	-2.8	-2.1
O=C(Nc1ccc(Oc2cccc(C(F)(F)F)c2)nc1)c1cccs1
  -0.3	0.62	-5	nt	nt	-44*	-34*	-2.5*	-2.8
CCc1ccc(NC(=O)COn2nnc3ccc(S(=O)(=O)N(C)C)cc32)cc1
  -1.7	0.68	9	16%	nt	nt	nt	nt	nt

Continuation.
Values in the order: HNF4A DNA FP	E coli growth	ALR H2O2 inh	Vif TR-FRET	FGF22 binding	Ecoli rRNA inh	Ecoli rRNA inh OD600	Ecoli rRNA inh RFP	AF4-AF9 inh
Cc1ccc(Sc2ccc(C(=O)N(C)C)cc2[N+](=O)[O-])cc1
  1.5	0.65	nt	3%	i	-24	-30	-11	5.8
O=C1c2oc3ccccc3c(=O)c2C(c2cccc(Br)c2)N1Cc1ccco1 (stereo not drawn)
  1.0	0.76	-1	31%	nt	nt	nt	nt	nt
CCCCCCCCN1C(=O)[C@@H](CC(=O)NCCCCc2ccccc2)C[C@@]2(C(=O)OC)C1=C[C@H](C(C)(C)C)O[C@@H]2C
  nt	nt	nt	nt	i	1	5	-2.5	0.0
Fc1ccc(F)c(NC(=S)NCCc2ccccc2)c1
  11	0.7	13	nt	nt	-20	-36	-2.1	0.2
Cc1ccc(S(=O)(=O)N(C)CCCC(=O)Nc2ccc(F)cc2)cc1
  -0.2	0.77	-2	-6%	i	-8	-6	0.8	-2.0
